CSC inhib: cancer stem cell inhibition; cancer stem cell-like cells viability, luminescence; inhibition, % at 7.5 µM; 300,000 tested, 1.1% active; AID 2717;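 active = mean at 75% or more and at least half the replicates too; inconclusive = mean and replicates disagree; tested in HMLE shEcad cells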;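 note: 0% = median of negative and 100% = median of positive control wells; the first replicate is given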
MT1-MMP act inh: blocks activation of human MT1-MMP; HT1080 RFP-PRO-GFP cells, GFP/RFP ratio fluorescence, overnight; percent of plate control window, DMSO zero; P50281; 360,000 tested, 0.061% active; AID 651647; GFP/RFP ratio change, % at 20 µM;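 active = GFP/RFP ratio change of at least 30% with cell ATP level not reduced by more than half and red fluorescence within 50% of control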; note: strong numbers were not always called active
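Test system: HT1080 RFP-PRO-GFP cells; Benchmarks: DMSO and RFP-L50D-GFP cell wells; Timing: cells overnight before dosing, compound overnight, 37 °C, 5% CO2; Compound: one 20 µM compound dose with 1% DMSO; Read-out: GFP/RFP fluorescence ratio.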
eIF4H inh: inhibitors of RNA binding by human eIF4H; Q15056; eIF4H fluorescence polarization binding assay; inhibition, % at 35 µM; 290,000 tested, 0.94% active; AID 2012;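 active = 50% or more with normal probe brightness, or confirmed in later tests; inconclusive = above 50% with abnormal brightness, or retests that disagree; inactive = below 50% or failed in later tests; about a fifth of its hits are not listed in these tables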;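 note: calls also rest on retests at 20 µM and on dose response follow-up; 0% = protein and probe with vehicle and 100% = probe without protein; strong numbers were not always called active; many hits fall short of the cut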
Rce1 inhib: blocks yeast Ras-converting enzyme | 290,000 tested, 0.27% active | yeast membranes, quenched prenylated peptide cleavage fluorescence | calls only;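 active = fall in fluorescence gain of 50% or more versus controls, with final raw signal at or below 3038400; inconclusive = same 50% fall but final raw signal above 3038400; inactive = fall in fluorescence gain under 50%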;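 note: plate controls were neutral control wells for no effect and wells lacking membranes for full effect; tested at 10 µM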
Target sequence (Q03530 whole entry, looked up): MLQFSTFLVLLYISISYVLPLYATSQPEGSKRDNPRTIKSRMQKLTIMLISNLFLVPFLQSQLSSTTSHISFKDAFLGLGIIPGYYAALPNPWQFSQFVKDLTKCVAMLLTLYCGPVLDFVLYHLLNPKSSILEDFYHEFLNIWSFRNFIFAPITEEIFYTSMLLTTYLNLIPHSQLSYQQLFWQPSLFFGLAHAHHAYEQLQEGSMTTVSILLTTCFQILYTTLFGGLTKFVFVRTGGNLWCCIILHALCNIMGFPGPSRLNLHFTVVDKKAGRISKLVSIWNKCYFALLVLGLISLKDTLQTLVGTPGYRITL
HIV Env fusion: inhibitors of HIV Env-mediated cell fusion; HeLa-JRFL Env/CEM21 cell fusion, luciferase; inhibition, % at 12.3 µM; 360,000 tested, 1.1% active; AID 651610;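 active = mean replicate inhibition score of at least 50 and every replicate individually at or above 50; inconclusive = only one of the two criteria met; inactive = mean below 50 and not all replicates reaching 50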;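 note: 0% = plate neutral controls and 100% = maraviroc near 300 nM; one replicate is shown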
PABP polyA inh: blocks human PABP binding to poly(A) RNA; 290,000 tested, 1% active; inhibition, % at 35 µM; fluorescence polarization; AID 2014; P11940;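 active = 50% or more with normal probe brightness, or confirmed in later tests; inconclusive = above 50% with abnormal brightness, or retests that disagree; inactive = below 50% or failed in later tests; about a fifth of its hits are not listed in these tables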;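 note: calls also rest on retests at 20 µM and on dose response follow-up; controls were probe without protein and protein plus probe with vehicle; some compounds called inactive have numbers as strong as hits; many hits fall short of the cut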
Target sequence (P11940 whole entry, looked up): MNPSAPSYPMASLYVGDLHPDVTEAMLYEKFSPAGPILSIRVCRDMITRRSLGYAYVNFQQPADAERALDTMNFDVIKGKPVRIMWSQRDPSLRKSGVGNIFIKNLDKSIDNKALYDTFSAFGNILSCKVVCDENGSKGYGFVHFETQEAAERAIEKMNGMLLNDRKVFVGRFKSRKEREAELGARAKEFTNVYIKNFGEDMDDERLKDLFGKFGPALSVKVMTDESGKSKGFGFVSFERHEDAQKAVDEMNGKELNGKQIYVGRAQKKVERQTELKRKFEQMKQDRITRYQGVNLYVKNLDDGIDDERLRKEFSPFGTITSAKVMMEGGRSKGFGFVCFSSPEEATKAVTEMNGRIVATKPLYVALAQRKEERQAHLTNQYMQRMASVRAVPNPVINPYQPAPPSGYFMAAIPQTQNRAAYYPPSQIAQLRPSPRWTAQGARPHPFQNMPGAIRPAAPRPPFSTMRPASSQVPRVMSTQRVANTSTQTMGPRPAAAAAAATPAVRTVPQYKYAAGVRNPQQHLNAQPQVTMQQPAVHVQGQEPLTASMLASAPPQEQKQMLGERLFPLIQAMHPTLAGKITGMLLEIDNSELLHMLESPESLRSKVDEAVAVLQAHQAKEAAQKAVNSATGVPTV
UUG fidelity: alters start codon recognition fidelity in yeast; activity score, % at 18.7 µM; 350,000 tested, 0.13% active; S. cerevisiae UUG-firefly luciferase reporter, luminescence/redox ratio; AID 602363;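 active = replicate mean at a twofold rise or more, about +100% in these data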;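 note: firefly luciferase made from a UUG start codon reports start codon fidelity; reporter light over untreated wells divided by growth signal over untreated wells; some hits fall short of that in this replicate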
PABP polyA inh retest: second read-out of PABP polyA inh, no call of its own (marks repeat the call); inhibition, %; compound at 20 µM; confirmation repeats;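 mean of two retest wells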
MT1-MMP act inh RFP: recorded beside MT1-MMP act inh, whose call it bears; RFP signal change, %; measured here: RFP expression control read;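 0 = vehicle wells; hits needed this value within 50% of zero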
* = called active by the depositor; i = inactive; ? = inconclusive; · = no result given; & = joins results of further samples; [ ] = dose if it differs, or a comment.

SMILES	CSC inhib	MT1-MMP act inh	MT1-MMP act inh RFP	eIF4H inh	Rce1 inhib	HIV Env fusion	PABP polyA inh	UUG fidelity	others
COc1ccc(/C=C2\CCC/C(=C\c3ccc(OC)c(OC)c3OC)C2=O)c(OC)c1OC	·	-3	-10	-4	i	-4	2	5
COc1ccccc1CNS(=O)(=O)c1ccc(NC(C)=O)cc1	3	4	-6	-3	i	13	-1	-12
COc1ccc(N2CCN(C(=O)c3cccc(Cn4cc(Cl)cn4)c3)CC2)cc1	-10	4	-3	-2	i	·	-23	1
CC(c1ccccc1)N1CCn2c(nc3cc(NS(C)(=O)=O)ccc32)C1 (stereo not drawn)	-5	-4	1	-7	i	-9	-7	-16
Cc1csc(NC(=O)c2ccc(C(=O)Nc3nc(C)cs3)cc2)n1	13	·	·	?	i	·	3.5*	·	PABP polyA inh retest=84*
CC(C)=CCC[C@](C)(O[C@@H]1O[C@H](CO[C@@H]2O[C@H](CO)[C@@H](O)[C@H](O)[C@H]2O)[C@@H](O)[C@H](O)[C@H]1O)C1CC[C@]2(C)C1C(=O)CC1[C@@]3(C)CC[C@H](O[C@H]4O[C@@H](CO)[C@H](O)[C@@H](O)[C@@H]4O)C(C)(C)C3CC[C@]12C (stereo partly drawn)	-13	-2	-1	·	·	-21	·	14
CC1CCN(C(=O)Cn2c(=O)n(CCc3ccccc3)c(=O)c3ccccc32)CC1	20	5	-1	-6	i	·	-7	-2
c1nc(N2CCCCCC2)c2[nH]cnc2n1	-11	-8	-10	7	i	47	-10	-1
CCOC(=O)C1CCCN(c2ncnc3c2oc2ccccc23)C1 (stereo not drawn)	-15	2	-15	11	i	·	12	-9
Cc1ccc(CSc2nc3nc(C)cc(C)n3n2)cc1	-13	6	-4	-6	i	0	-3	-4
O=C1c2cccc3cccc(c23)C(=O)N1CCCn1ccnc1	4	1	7	·	i	-13	·	-12
CC1CCCN(C(=O)COC(=O)COc2ccc(C#N)cc2)C1 (stereo not drawn)	1	3	2	·	·	·	·	-4
CCC(=O)Nc1ccc(C(=O)OCc2ccccc2Cl)cc1	11	-5	-6	5	i	-127	-7	-2
CCc1cc(C(=O)OC)c(NC(=O)CSc2nccn2C)s1	-15	2	-7	0	i	11	-14	-22
CC(C)(C)n1nc2c(c1NC(=O)c1ccc(C(F)(F)F)cc1)CS(=O)(=O)C2	-4	-2	3	9	i	-203	-1	-10
Cc1ccc(S(=O)(=O)N(C)CC(=O)N(CC(C)C)C2CCS(=O)(=O)C2)cc1 (stereo not drawn)	·	-4	-1	·	i	-16	·	-10
CC(=O)Nc1ccc(S(=O)(=O)N/N=C/c2cccnc2)cc1	-6	0	7	1	i	5	-2	-10
COc1ccc(C(=O)Oc2cc(N)n(S(=O)(=O)c3ccc(C)cc3)n2)cc1	24	3	3	0	i	-50	2	-20
C/C(=C\C(=O)c1ccc(F)cc1)NCc1ccc2c(c1)OCO2	21	5	2	0	i	·	-11	2
Clc1cccc(Cc2c(-c3cccc(Cl)c3)nc3ccc(Cl)cn23)c1	·	-5	-4	·	·	-15	·	-11
COCCN1C(=O)c2ccccc2C(C(=O)NCCCN2CCCC2)C1c1c[nH]c2ccccc12 (stereo not drawn)	-7	·	·	-11	i	·	-5	·
Cc1ccc(Nc2nc(-c3sc(NC(=O)c4ccccc4)nc3C)cs2)cc1	31	-5	5	-9	i	-13	-10	-11
CCOC(=O)c1cnc2c(ccc3ccccc32)c1NCCO	-6	3	-1	-8	i	·	3	11
CN(CC(=O)Nc1ccc(Cl)cc1)CC(=O)Nc1cccc(Br)c1	26	0	0	0	·	15	4	9
Cc1cc(C)c(S(=O)(=O)N2CCN(C)CC2)c(C)c1	-11	0	3	-13	i	-78	-8	-1
O=C(c1ccco1)N1CCN(S(=O)(=O)c2ccc3c(c2)CCN3C(=O)C2CCC2)CC1	21	5	-2	3	i	4	4	-1
CN(C)CCCn1c2c(c(SCC(=O)Nc3cccc4ccccc34)nc1=O)CCC2	-10	-1	-1	·	i	1	·	-2
C(=N\Nc1nc(N2CCCC2)nc(N2CCCC2)n1)/c1cccnc1	13	-4	-1	3	i	7	-8	·
CCCCOCCCNC(=O)c1c(-c2ccccc2)noc1C	-4	6	1	3	i	·	5	-13
Cc1ccc(C)c(OCc2cc(C(=O)N3CCN(c4ccccc4C)CC3C)no2)c1 (stereo not drawn)	34	-1	-1	-10	i	·	-16	-19
Cc1ccc(S(=O)(=O)N(C)C[C@H]2Oc3ccc(NC(=O)C4CCCCC4)cc3C(=O)N([C@H](C)CO)C[C@H]2C)cc1	15	-6	-1	·	·	-44	·	-7&32
COc1cccc(C(=O)NC2CC(C)(C)Cc3c2cnn3-c2cccc(F)c2)c1OC (stereo not drawn)	-5	-2	-7	4	i	23	-7	-10
COc1ccc(NC(=S)Nc2cc(C)ccn2)c(OC)c1	·	-3	-1	4	i	·	-2	-12
CC(=O)Nc1cccc(NS(=O)(=O)c2cn(C)c(=O)n(C)c2=O)c1	0	3	4	-7	i	-8	-10	-10
O=C(CSc1ccc(-c2ccc(F)cc2)nn1)NC1CCCCC1	-7	-1	-6	0	i	4	3	-11
CC(C)(C)CC(C)(C)NC(=S)Nc1ccc2nc(-c3ccccn3)c(-c3ccccn3)nc2c1	41	-128	-17	26	i	58*	27	-20

3 structures already listed, sorted by heavy-atom count, high to low:
SMILES	CSC inhib	MT1-MMP act inh	MT1-MMP act inh RFP	eIF4H inh	Rce1 inhib	HIV Env fusion	PABP polyA inh	UUG fidelity	others
COc1cccc(C(=O)NC2CC(C)(C)Cc3c2cnn3-c2cccc(F)c2)c1OC (stereo not drawn)	-5	-2	-7	4	i	23	-7	-10
O=C(CSc1ccc(-c2ccc(F)cc2)nn1)NC1CCCCC1	-7	-1	-6	0	i	4	3	-11
COc1ccc(NC(=S)Nc2cc(C)ccn2)c(OC)c1	·	-3	-1	4	i	·	-2	-12

(next part)
SMILES	CSC inhib	MT1-MMP act inh	MT1-MMP act inh RFP	eIF4H inh	Rce1 inhib	HIV Env fusion	PABP polyA inh	UUG fidelity	others
CC(=O)Nc1ccc(CC(=O)NCCC(c2ccccc2)c2ccccc2)cc1	33	-4	-2	6	i	27	8	-4
CCOC(=O)C1CCN(C(=O)c2ccccc2N(C)S(=O)(=O)c2ccccc2)CC1	·	2	5	4	i	-14	2	·
Cc1ccc(OCc2cc(C(=O)N3CCC(c4ccccc4Cl)C3)no2)cc1C (stereo not drawn)	29	-2	0	-4	i	-22	8	-15
CCCCN(C(=O)c1ccc(NC(=O)C(C)C)cc1)c1ccccc1	-10	5	-1	-4	i	-8	-11	·
O=C(NC(Cc1ccccc1)C(=O)O)/C(=C\c1ccco1)NC(=O)c1ccc(Br)cc1 (stereo not drawn)	-7	-10	4	32	i	·	22	·
Cc1cc(=O)[nH]c(N=N/C(=N/Nc2ccccc2C)c2ccccc2)n1	-11	6	4	-5	i	·	-5	·
COc1ccc(S(=O)(=O)N2CCCC(C(=O)N3CCN(Cc4ccccc4)CC3)C2)cc1Cl (stereo not drawn)	·	1	-9	·	·	9	·	-12
COc1ccc(-n2ncc3c(=O)n(CC(=O)N(C(C)C)C(C)C)cnc32)cc1	-2	-2	-1	-2	·	-9	4	-9
COc1cc(C2c3sc(=O)[nH]c3SC3C(=O)N(c4ccc(C)cc4)C(=O)C32)ccc1O (stereo not drawn)	13	-5	8	30	i	5	29	-30
CCOc1ccc(OCC)c(S(=O)(=O)n2cc(C)nc2CC)c1	0	-2	-3	-1	i	2	-4	·
C=CCn1c(SC2CCOC2=O)nc2scc(C3CC3)c2c1=O (stereo not drawn)	-10	-1	1	-2	i	-57	9	-30
Cc1ccc2c(C)c(C(=O)N(C)CCC3CCCCO3)oc2c1C (stereo not drawn)	30	-3	-2	0	i	-19	-6	2
Cn1c(C(=O)N/N=C/c2ccccc2)cc2ccccc21	-1	1	-3	-10	i	-65	-2	-5
O=C(c1ccc(Cl)cc1)N1CCCOC1	-12	-4	1	6	i	-28	0	-21
CC1(C(=O)NS(=O)(=O)c2cccc(Cl)c2)CCN1C(=O)Cc1cc(F)ccc1F (stereo not drawn)	·	5	0	·	·	-18	·	12
N#CCc1ccc(NC(=O)c2ccccc2C(=O)Nc2ccc(CC#N)cc2)cc1	-3	1	4	3	i	1	4	-15
CC(=O)/C=C/c1ccccc1Oc1c(F)c(F)nc(F)c1F	24	-10	-13	2	i	-12	9	-24
COc1ccccc1-c1nnc2n1N=C(c1ccc(OC(F)F)c(OCC3CC3)c1)CS2	·	5	-6	·	·	23	·	-15
O=C(Nc1cccc(S(=O)(=O)N2CCCCC2)c1)c1ccc2ncsc2c1	2	-2	-20	-4	i	-11	13	·
Cc1ccc(Nc2nc(-c3ccc(C)cc3)c(CC(=O)O)s2)cc1	-11	-28	7	-10	i	4	13	-2
O=C(NNc1ccc([N+](=O)[O-])cc1[N+](=O)[O-])C1C2CCCCC21 (stereo not drawn)	-9	-3	0	-1	i	-5	4	·
CCOc1ccc(C(C)NC(=O)C2CCC2)cc1 (stereo not drawn)	-12	2	5	8	i	-22	-5	·
COc1cc(C2C(C(N)=O)=C(C)Nc3nc(CCCO)nn32)cc(OC)c1OC (stereo not drawn)	·	1	-1	-23	i	-10	2	-9
CO[C@H]1CN(C)C(=O)c2cc(NS(=O)(=O)c3ccccc3)ccc2OC[C@@H](C)N(Cc2ccccn2)C[C@@H]1C	·	-1	3	·	·	-23[16.7 µM]	·	-21
COc1cccc(OC)c1-c1nn2c(-c3cc(-c4ccccc4)n[nH]3)nnc2s1	67	-4	-5	-8	i	·	-5	2
Cc1ccc(C(=O)Nc2cc(Cl)ccc2-n2cncn2)s1	-6	0	-2	·	i	-9	·	·
COC(=O)c1c(N2C(=O)[C@H]3[C@@H](C2=O)[C@]2(C(=O)Nc4ccc(C)cc42)N2CCC[C@@H]32)sc(C)c1C	-9	·	·	-4	i	·	-5	·
C=CCn1c(SCc2ccc([N+](=O)[O-])cc2)nnc1C(C)NC(=O)c1ccccc1 (stereo not drawn)	-1	1	1	6	i	?	-4	6
COc1ccc(N(C(=O)c2snc(C(N)=O)c2N)C(C(=O)NCC2CCCO2)c2ccc(C)o2)cc1OC (stereo not drawn)	·	-8	-8	8	i	0	-6	-8
O=C(COC(=O)CCSc1ccc(Cl)cc1)NCc1ccccc1	0	3	6	-14	i	·	1	·
Cn1c(Nc2ccccc2)cc(=O)n(C)c1=O	-6	1	6	1	i	-2	7	-9
O=C(/C=C/c1cccc(Br)c1)N1CCN(c2ccccn2)CC1	7	4	3	7	i	1	6	·
CN(Cc1c(C(=O)N/N=C/c2cccc(F)c2)nnn1-c1nonc1N)c1ccccc1	-2	0	-1	1	i	-3	-2	-9
Cc1cc(C)c(S(=O)(=O)N2CCCCC2)c(C)c1-n1ncnn1	-20	-6	-4	-9	i	8	-13	-1
O=C(O)C1CC1c1ccc(Br)cc1 (stereo not drawn)	-13	-5	0	9	i	·	12	·
COc1ccc(C2C(C(=O)c3ccco3)=C(O)C(=O)N2CCCn2ccnc2)c(OC)c1 (stereo not drawn)	3	-2	1	-8	i	-15	12	·
COc1ccc(C(C)=O)cc1COC(=O)c1cc(=O)c2ccccc2o1	-3	3	6	3	i	-4	11	-2
O=S(=O)(c1ccc2c(c1)OCCO2)N1CCN(c2cccc(Cl)c2)CC1	6	-1	-3	4	i	·	-5	-10
COc1ccc(OCCOC(=O)CNC(=O)c2ccc(F)cc2)cc1	·	3	5	·	·	-2	·	2
Cc1cn([C@H]2C[C@H](O)[C@@H](/C=C/C(=O)NCC(c3ccccc3)c3ccccc3)O2)c(=O)[nH]c1=O	·	2	4	·	·	-15	·	-1

Screens from PubChem.

Only part of the results is shown, so the mix of outcomes need not match the whole.
